Screening results (PubChem)
Tgondii IFNg: T. gondii growth inhibition with IFN-gamma, primary screen, cell-based; Toxoplasma gondii growth in IFN-gamma-treated host cells; hits give low values; reference of the scale not given here; 69,000 compounds, 3.8% hits; activity change, negative = inhibition, %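 (about 20 µM by stock and volumes)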; AID 1259416, 2018;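 active = below -70%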;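 also: host cells are HeLa cells infected with Toxoplasma gondii; parasite growth read as luciferase light; one replicate is shown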
An asterisk follows results filed as active; i = inactive; & = joins results of further samples.

cpd	SMILES	Tgondii IFNg
1	CCCC1COCCN1C(=O)c1cnn2ccn(C)c12 (stereo not drawn)	-36.7
2	Cc1nc(CN(C)Cc2ccc(-n3cccn3)cc2)co1	11.0
3	CCOC(=O)C1C(c2ccccc2)C(C(=O)OCC)C1c1ccccc1 (stereo not drawn)	2.9
4	O=C(Nc1nccs1)C12CC3CC(CC(C3)C1)C2	-3.0
5	Cc1cc(=O)n(CCC(=O)Nc2ccccc2OCC2CCCCO2)c2ccccc12 (stereo not drawn)	7.5
6	O=C(c1cnccn1)N1CCC2(CCCN2)CC1	90.8
7	CNc1ccc(Cl)cc1C(=O)NCCN(C)S(C)(=O)=O	-31.0
8	Cc1cc(C(=O)O)c2cc(-c3cn[nH]c3)ccc2n1	2.1
9	C[C@@H]1CN([C@@H](C)CO)C(=O)CCCn2cc(nn2)CO[C@@H]1CN(C)S(=O)(=O)c1cn(C)cn1	99.4
10	COc1cc2c(cc1CNS(=O)(=O)c1ccc3[nH]c(=O)[nH]c(=O)c3c1)CCC2	6.9
11	C[C@@H]1CN([C@H](C)CO)C(=O)c2cc(N(C)C)ccc2O[C@@H](C)CCCCO[C@H]1CN(C)C(=O)NC1CCCCC1	423.8
12	O=C(Cn1ncc2c(N3CCOCC3)ncnc21)NCc1ccc(F)c(Cl)c1	-33.2

(further entries)
cpd	SMILES	Tgondii IFNg
13	CCOc1ccc(-c2nc(Cn3ccn4nc(-c5ccccc5)cc4c3=O)c(C)o2)cc1OC	86.4
14	CN1CCC2(CC1)CN(C(=O)[C@H](N)Cc1ccccc1)CCN2C	-2.3
15	CN1CCN(C(=O)c2c(O)cccc2O)CC1c1ccccc1 (stereo not drawn)	-22.7
16	CN(C)c1cccc(C(=O)N2CSC[C@@H]2C(=O)NCCc2csc(-c3ccccc3)n2)c1	-6.9
17	CCc1[nH]n2c(=O)c(C)c(C)nc2c1-c1ccccc1	-7.4
18	C[C@@H]1CCCCO[C@@H](CN(C)C(=O)NC2CCCCC2)[C@@H](C)CN([C@H](C)CO)C(=O)c2cc(N(C)C)ccc2O1	57.6
19	CCN(CC)C(=O)CC1CC2(CCN(Cc3csc(C)n3)CC2)c2ccccc21 (stereo not drawn)	4.3
20	CC(C)CCN1Cc2c(C(=O)NC3CCCCC3)ncn2-c2ccccc2S1(=O)=O	-41.0
21	CCCc1cc(NCC2(O)CCCNCC2)nc(C)n1 (stereo not drawn)	4.7
22	Cc1onc(-c2ccccc2)c1C(=O)On1c(-c2ccccc2)nc2ccccc2c1=O	54.1
23	O=C1CCCCn2nncc2COC[C@@H](Cc2ccccc2)N1	6.5
24	COc1ccc2c(c1)N(C[C@H](C)CN(C)C)c1ccccc1S2	28.9

The list goes on:
cpd	SMILES	Tgondii IFNg
25	CN1CCNC(=O)C12CCN(C(=O)C1CCc3ccccc3C1)CC2 (stereo not drawn)	-37.9
26	COC(=O)CC(=O)c1cc(C(F)(F)F)nn1C	23.9
27	COc1ccc(C(=O)N2CCCC3(C2)Nc2cccnc2NC3=NC2CCCC2)cc1F (stereo not drawn)	-46.2
28	COc1cccc2c1OCCCN(C(=O)c1ccccc1C1CCNC1)C2 (stereo not drawn)	0.8
29	CC(C)Oc1cccc(-n2c(CCc3c[nH]c4ccc(Br)cc34)nc3ccccc3c2=O)c1	13.7&0.3
30	C/C=C/c1ccc2c(c1)O[C@@H](CN(C)C(=O)Nc1ccc(OC)cc1)[C@@H](C)CN([C@@H](C)CO)S2(=O)=O	100.2
31	CCC(=O)Nc1cccc(NC(=O)Cn2c(-c3ccc(F)cc3)nc3ccccc32)c1	32.6
32	Cc1oc(C2CCN(C(=O)Nc3cccc(Cl)c3F)CC2)nc1C(=O)N(C)C	31.1
33	CCc1cnc(N2C[C@H]3[C@H](C(=O)NCC4CC4)CCS(=O)(=O)[C@H]3C2)nc1	-8.7
34	O=C(NCCn1cccn1)c1ccc(C2CCNC2)cc1 (stereo not drawn)	0.6
35	CCn1cc(CN2CCc3c(N)nc(N4CCCC4)nc3C2)c(C)n1	-27.1
36	Cn1c(CNC(=O)C2CCC2)nc2c1CN(S(=O)(=O)Cc1ccc(Cl)cc1)CC2	57.5

Following part
cpd	SMILES	Tgondii IFNg
37	Cc1ccc(S(=O)(=O)N2CCC(c3nc(C(=O)N(C)C)c(C)o3)CC2)cc1	86.9
38	CCCS(=O)(=O)N1CC[C@H]2[C@@H]1CCN2c1nncs1	278.2
39	COc1ccc(-c2nc(CSc3nc4c(=O)[nH]cnc4n3C)c(C)o2)cc1	-0.6
40	Cn1c(SCC(=O)O)nc2cc(C(F)(F)F)cnc21	-21.5
41	CCN1C(=O)[C@@H]2CN(CCOC)C[C@@H]2C12CCN(C(=O)CC(C)C)CC2	-5.4
42	Cc1ccc(CN2CCC(O)(Cn3nnc(-c4ccc5c(c4)OCO5)n3)CC2)o1	77.5
43	c1ccc(CN2CCc3ncnc(C4CCOC4)c3CC2)nc1 (stereo not drawn)	i
44	CCOC(=O)C1CCN(C(=O)c2nc(-c3ccc(Cl)cc3)n3c2CCCCC3)CC1	-69.2
45	Cc1cc(NCc2cnc3c(C)cccn23)nc(-c2cccnc2)n1	-37.7
46	OCCCc1nncn1-c1ccc(Cl)cc1	2.8
47	O=C(Oc1cccc(NC2=NS(=O)(=O)c3ccccc32)c1)c1ccc(Cl)cc1Cl	-2.2
48	CN(C)C1CCN(Cc2cccc(C(=O)Nc3cccc(CO)c3)c2)C1 (stereo not drawn)	27.4

Following part:
cpd	SMILES	Tgondii IFNg
49	COc1ccc2c3c([nH]c2c1)[C@@H](CO)N(C(C)=O)CC31CCN(Cc2cc(-c3ccccc3)on2)CC1	-51.8
50	CCCNC(=O)Nc1ccc2c(c1)C(=O)N(C)C[C@@H](OC)[C@@H](C)CN(C)[C@H](C)CO2	-4.5
51	CN1c2cc(Cl)ccc2C(=O)NC12CCN(C(=O)NCCc1ccccc1)CC2	-2.1
52	COCCNC(=O)c1ccc(N(C)S(=O)(=O)c2ccccc2)cc1	-8.6
53	CCn1c(=O)c(-c2nc(-c3ccc(F)c(Cl)c3)no2)c(O)c2ccccc21	-48.5
54	CC[N+](C)(CC)CC(=O)Nc1c(C)cccc1C	5.9&8.1
55	COc1ccc(CC2CN(CCCC(F)(F)F)CCO2)cc1 (stereo not drawn)	6.3
56	Cc1ccc(C23CC4CC(CC(CN)(C4)C2)C3)cc1C	-89.5*
57	COc1ccc(C(=O)c2ccc(C)cc2)c(O)c1	98.0
58	COc1cccc(-c2nc(-c3noc4ccc(C(=O)N5CCCO5)cc34)co2)c1	156.4
59	COc1ccccc1N1CCN(Cc2cccc3nccnc23)C(C)C1 (stereo not drawn)	4.1
60	CC(C)Nc1ncnc2c1CCN(C(=O)c1ccnnc1)CC2	2.1

Next records.
cpd	SMILES	Tgondii IFNg
61	O=C(c1ccno1)N1CCCn2cnc(COCCO)c2C1	1.2
62	CCOc1c(Cl)cc(Cl)cc1CNCC1CCCO1 (stereo not drawn)	42.5
63	C=Cc1cccc(CN2CCC(CNS(=O)(=O)N3CCCC3)C2)c1 (stereo not drawn)	9.2
64	O=C(CCC1N=C2c3ccccc3N=C(SCc3ccc(F)cc3)N2C1=O)NCc1cccs1 (stereo not drawn)	-17.9
65	Cc1cccc(C)c1NC(=O)C(=O)NCCc1sc(-c2ccccc2)nc1C	-30.3
66	COc1ccc(-c2nc(Cn3c(=O)c4c(C)cc(C)nc4n(C)c3=O)c(C)o2)cc1	1.5
67	O=C1N(CC2CCC2)CCCC1(O)CNCc1nc2ccccc2c(=O)[nH]1 (stereo not drawn)	0.4
68	O=C(CC1COCCN1)NCCc1cnn(-c2ccccc2)c1 (stereo not drawn)	5.6
69	COc1cccc(OC)c1C(=O)NCCc1csc(-c2ccc(F)cc2)n1	36.0
70	CC1(C(=O)NCc2ccc(F)cc2F)CCN(C(=O)c2ccc(Br)cc2)CC1	-25.7
71	CSc1nnc(C2CCCN2C(=O)C2(c3ccc(Cl)cc3)CCCCC2)n1C (stereo not drawn)	23.5
72	Cc1ccc2[nH]c3c(c2c1)CCNC31C(=O)N(C)c2ccc(Br)cc21 (stereo not drawn)	1.5

Filtered by structure, those above with a COOH group.
cpd	SMILES	Tgondii IFNg
8	Cc1cc(C(=O)O)c2cc(-c3cn[nH]c3)ccc2n1	2.1
40	Cn1c(SCC(=O)O)nc2cc(C(F)(F)F)cnc21	-21.5

Remaining list, next part.
cpd	SMILES	Tgondii IFNg
73	C=CCn1c(SCC(=O)N2CCc3ccccc3C2)nnc1-c1ccccc1F	29.5
74	Cn1c(=O)cc(C(=O)N2CCCC(O)(CO)CC2)c2ccccc21 (stereo not drawn)	5.6
75	CN1c2ccc(-c3ccc(F)cc3)cc2[C@@H]2[C@@H](CCN2C(=O)Cc2cccnc2)[C@H]1CO	-53.1
76	Cn1nc(-c2ccccn2)c2c1NC(=O)CC2c1cc2ccc(F)cc2[nH]c1=O (stereo not drawn)	-26.1
77	COCC(=O)N1CCC2(CC1)COc1ccccc1S(=O)(=O)N(CC1CC1)C2	46.8
78	COCc1cc(C(=O)N2CCC3(CCN(C)CC3)C2)ccc1OC	1.8
79	COC(=O)c1sccc1Oc1nccnc1C#N	37.4
80	CCCCCC(O)CCCC(=O)O (stereo not drawn)	16.0
81	O=S(=O)(CCc1ccccc1)NCCc1csc(-c2ccc(F)cc2)n1	32.7
82	CN1CCN(C(=O)c2cccc(O)c2)CC1C(=O)O (stereo not drawn)	-0.7
83	CCn1cc(CN(C)Cc2cnn(-c3ccc(F)cc3)c2)cn1	2.4
84	COc1ccc(CN2C[C@@H]3CN(Cc4cnn(C)c4)C[C@H]3C2=O)cc1	-31.9

Some of these compounds in order of heavy-atom count, largest number first:
cpd	SMILES	Tgondii IFNg
75	CN1c2ccc(-c3ccc(F)cc3)cc2[C@@H]2[C@@H](CCN2C(=O)Cc2cccnc2)[C@H]1CO	-53.1
76	Cn1nc(-c2ccccn2)c2c1NC(=O)CC2c1cc2ccc(F)cc2[nH]c1=O (stereo not drawn)	-26.1
77	COCC(=O)N1CCC2(CC1)COc1ccccc1S(=O)(=O)N(CC1CC1)C2	46.8

(list continues)
cpd	SMILES	Tgondii IFNg
85	Cc1cc(C)n(CCCNC(=O)c2cccc(C3CCNC3)c2)n1 (stereo not drawn)	1.6
86	Cc1ccc(C)c(NC(=O)C2CC(O)CN2C(=O)OCc2ccccc2)c1 (stereo not drawn)	-32.0
87	COC[C@H]1CCC[C@H]1Nc1nc(C)nc2c1cnn2C	4.5
88	CC1(C)CC(NC(=O)CN2C(=O)COc3c(Cl)cccc32)c2ccccc2O1 (stereo not drawn)	-0.6
89	Clc1ccc(-c2nc(N3CCc4ccccc43)c3ccccc3n2)cc1	-11.4
90	O=C(c1ccc(N2CC=CCC2)nc1)N1CCC(N2CCOCC2)CC1	81.8
91	CCN(CC)C(=O)c1cc(=O)n(CC(=O)Nc2ccc(F)cc2)c2ccccc12	4.8
92	CCOc1cc(-c2nccn2C(C)c2nc(CC)no2)ccc1OC (stereo not drawn)	44.1
93	CCCN1C[C@H](C)[C@H](OC)CN(C)C(=O)c2cc(NC(=O)C3CCC3)ccc2OC[C@@H]1C	88.8
94	O=C(Nc1ccccc1Cl)N1CCC2(CC1)Nc1ccccc1-n1cccc12	429.8
95	CCOCC1CN(Cc2ccncc2)Cc2nnn(CC3CC3)c21 (stereo not drawn)	-45.6
96	Cc1nc2[nH]nc(C)n2c(=O)c1CC(=O)NC(c1ccc(F)cc1)C(C)C (stereo not drawn)	7.6

The listing continues.
cpd	SMILES	Tgondii IFNg
97	CCc1nc2cc(NC(=O)COc3ncnc4ccccc34)ccc2n1C	77.0
98	Fc1cc(Br)cc(F)c1NC(=S)Nc1cccc(Cl)c1	-5.8
99	CN1C(=O)c2cc(NC(=O)c3cccc(C(F)(F)F)c3)ccc2OC[C@H]2O[C@H](CC(=O)NCCN3CCCC3)CC[C@H]21	15.0
100	COc1ccc(-c2nc(C3CCN(S(=O)(=O)C(F)(F)F)CC3)cc3c2ncn3C)cc1	-4.8
101	COc1ccc2[nH]c(=O)c(C3CC(=O)Nc4c3c(C(C)C)nn4C)cc2c1 (stereo not drawn)	-1.1
102	O=C(c1ccc2c(c1)OCCO2)N1CCC(Cn2cc(C3CC3)nn2)CC1	-5.8
103	Cc1cc(NC(=O)CN(C)Cc2nc(C)c3c(n2)N(CCc2ccccc2)C(=O)CC3)no1	0.2
104	c1ccc(C2=N[C@H](c3ccccc3)[C@H](c3ccccc3)N2)cc1	-4.6
105	CNC[C@H]1OCc2ccccc2-c2ccccc2C(=O)N([C@H](C)CO)C[C@H]1C	-33.7
106	CCOC(=O)c1nn(CCc2ccccc2)c2c1CN(C(=O)c1cnccn1)CC2	8.8
107	Cc1cc(N2CCN(CC(=O)N(C)C3CCS(=O)(=O)C3)CC2)nc2ccccc12 (stereo not drawn)	1.3
108	CCCCCN1CC2CN(S(=O)(=O)c3ccccc3)CC21 (stereo not drawn)	2.0

Next section
cpd	SMILES	Tgondii IFNg
109	O=C(O)C1Cc2c([nH]c3ccccc23)C(c2ccc3c(c2)OCO3)N1 (stereo not drawn)	-28.8
110	O=C(O)CC1(CC(=O)Nc2ccc3ccccc3n2)CCCCC1	76.9
111	CN1CCN(c2ncccc2CNC(=O)COCC2CCCO2)CC1 (stereo not drawn)	-2.9
112	COc1ccc(-c2ccccc2)cc1NCc1cc2cc(OC)c(OC)cc2[nH]c1=O	2.1
113	COc1ccc2c3c([nH]c2c1)[C@@H](CO)N(C)CC31CCN(C(=O)c2ccccc2F)CC1	15.0
114	CCc1cnc(N2[C@H](C#N)[C@@H](c3ccc(C4=CCCCC4)cc3)[C@H]2CO)s1	14.2
115	O=C(CCCc1nc(-c2ccco2)no1)N1CC2C[C@@H]3CC1C[C@H](C2)C3	-0.8
116	C=C(C)Cn1c(CCCNC(=O)C2CCCCC2)nc2ccccc21	-5.4
117	CCN(Cc1ccccc1)C(=O)c1cc2cccnc2n(Cc2ccc(Cl)cc2)c1=O	93.6

Fetched by compound from the list above:
cpd	SMILES	Tgondii IFNg
57	COc1ccc(C(=O)c2ccc(C)cc2)c(O)c1	98.0
105	CNC[C@H]1OCc2ccccc2-c2ccccc2C(=O)N([C@H](C)CO)C[C@H]1C	-33.7
87	COC[C@H]1CCC[C@H]1Nc1nc(C)nc2c1cnn2C	4.5
66	COc1ccc(-c2nc(Cn3c(=O)c4c(C)cc(C)nc4n(C)c3=O)c(C)o2)cc1	1.5
41	CCN1C(=O)[C@@H]2CN(CCOC)C[C@@H]2C12CCN(C(=O)CC(C)C)CC2	-5.4

Not all compounds are listed; rates above refer to the full screens.
